# From PubChem BioAssay
# StopGo FLuc – Primary qHTS Assay for Foot and Mouth Disease Virus Antivirals against NCGC Sytravon and CBC Compound Libraries: Firefly Luciferase Signal | HEK cells with a luciferase reporter of 2A StopGo recoding | Potency, µM (highest dose often 57.5 µM), without a hit: at the top dose signal change, negative = less light | hit rate 0.23% among 120,000; active = well fitted falling curve with a large enough effect; inconclusive = small, poorly fitted or top-dose-only effect; inactive = no such curve, though single readings can be large or run the other way; note: nearly all actives have a fitted effect of over 60% in size; overnight with compound
# 2A Renilla – Primary qHTS Assay for Foot and Mouth Disease Virus Antivirals against NCGC Sytravon and CBC Compound Libraries: Renilla Luciferase Signal | HEK cells with a luciferase reporter of 2A StopGo recoding | Potency, µM (highest dose often 57.5 µM), for the others: at the top dose signal change, negative = less light | hit rate 0.32% among 120,000 | AID 1745857, 2022; active means well fitted falling curve with a large enough effect; inconclusive means small, poorly fitted or top-dose-only effect; inactive means no such curve, though single readings can be large or run the other way; note: nearly all actives have a fitted effect of over 55% in size; overnight with compound
# An asterisk follows results filed as active; ? = inconclusive; & = joins results of further samples; [ ] = remark or other dose. % is set by controls: 0 for no effect and ±100 for the full control effect; potency is the fitted concentration of half-maximal effect.
mol | StopGo FLuc | 2A Renilla
CC(C)(C)C1CCc2c(sc(NC(=O)c3cc(-c4ccc(F)cc4)on3)c2C#N)C1 (stereo not given) | 6% | -9%
CCOc1ccccc1NS(=O)(=O)c1ccc(-c2cc(C(F)(F)F)on2)s1 | -4% | 3%
CC1C/C(=N/NC(=S)NC2CCCCC2)CC(C)(C)C1 (stereo not given) | 19% | 101%[activator]
COc1ccc(-c2cc(C(C)=O)c(C)n2CCC(=O)Nc2cccc(C)c2C)cc1 | -7% | 5%
Cc1ccc2c(c1)C(Cc1ccccc1F)C(=O)N2 (stereo not given) | -12% | 8%
CC(C)NC(=O)C(Cc1ccccc1)NC(=O)c1ccccc1 (stereo not given) | -4% | 21%
COCC(C)Nc1nc(-c2ccsc2)nc2ccccc12 (stereo not given) | -2% | -8%
COc1ccc(-c2cc(-c3ccc4c(c3)NC(=O)CO4)nc3c2COc2ccc(C)cc2-3)cc1 | -7% | -7%
CCNC(=O)NC(=O)COC(=O)c1ccc(COc2ccc3c(C)cc(=O)oc3c2)cc1 | 18% | -9%
Fc1ccc(OCc2nc(-c3ccccc3)no2)cc1 | 218%[activator] | 9%
C/C=C/C(=O)OCC(=O)c1ccc(Br)s1 | 37%[activator] | 2%
Cc1cc(C)nc(SCCS(=O)c2ccc(C(C)(C)C)cc2)n1 (stereo not given) | -2% | 11%
Cc1cccc(CNCc2ccco2)c1 | 8% | -3%
CC(C)(C)N1Cc2nnn(Cc3ccccc3)c2-c2cc(F)ccc2S1(=O)=O | -4% | 140%[activator]
COc1ccc(NS(=O)(=O)c2cc(C(=O)N3CCc4sccc4C3)ccc2Cl)cc1 | 0% | 58%[activator]
COc1cccc(N2CCN(S(=O)(=O)c3ccc(-n4cnnn4)cc3)CC2)c1 | -12% | 2%
CCC1c2cccn2-c2ccccc2CN1C(=O)Nc1ccc(F)cc1F (stereo not given) | -9% | 9%
CCOc1cc(-c2nc3c(c(CC)nn3-c3ccccc3)c3cc(OC)c(OC)cc23)ccc1O | -6% | 2%
CCOC(=O)c1ccc(NC(=O)CSc2nc3c(-c4ccccc4)c[nH]c3c(=O)n2CC)cc1 | 38%[activator] | 57%[activator]
COC(=O)c1sc2nc(CN(C)Cc3ccc(F)cc3)[nH]c(=O)c2c1C | 3% | -15%
CC(=O)Nc1ccc(S(=O)(=O)N2CCCCCC2c2ccc(C)s2)cc1 (stereo not given) | 9% | 114%[activator]
CCc1ccccc1NC(=O)C(=O)NCC(c1cccnc1)N1CCc2ccccc21 (stereo not given) | -29% | -25%
CC1(C)O[C@@H]2C[C@H]3[C@@H]4CCC5=CC(=O)C=C[C@]5(C)[C@@]4(F)[C@@H](O)C[C@]3(C)[C@]2(C(=O)CO)O1 | 44%[activator][11.5 µM] | 15%
O=C(NCC(c1ccco1)N1CCCC1)c1cc(=O)c2cc(Br)ccc2o1 (stereo not given) | -16% | 2%
COC(=O)C1CCN(Cc2cc(=O)oc3cc(C)c(Cl)c(C)c23)CC1 | 9% | -11%

# Next part.
mol | StopGo FLuc | 2A Renilla
O=C(Nc1ccc(Cl)c(Cl)c1)C1CCN(c2ncnc3nc[nH]c23)CC1 | -10% | -10%
Cc1ccc(N2CC(NC(=O)Cc3ccc(F)cc3)CC2=O)cc1 (stereo not given) | -7% | 1%
COc1cc(C2CC(=O)Nc3c2c(=O)nc(SC)n3C)cc(OC)c1OC (stereo not given) | -2% | -5%
C/C(=N/NC(=O)c1ccc(C)cc1)C(C)(C)C | 200%[activator] | 5%
Cc1ccc(C)n1-c1c(C(=O)NCCN2CCN(C)CC2)sc2ncccc12 | 0% | -9%
CCc1ccccc1-n1nnc(-c2nc(-c3ccccc3F)no2)c1C | 198%[activator] | 65%&123%[activator]
Cc1ccc(-c2csc(/C=C/c3cccc(O)c3)n2)cc1 | 294%[activator] | 4%
COc1ccccc1CN1CCNC(=O)C1=O | -15% | 3%
Cc1ccc(C)c(C(C)NC(=O)C2CCCCC2)c1 (stereo not given) | 16% | 11%
Cc1cc(C(C)(C)C)cc(C)c1S(=O)(=O)N1CCN(Cn2ncc3ccccc3c2=O)CC1 | 5% | -10%
CCOC(=O)C1CCN(Cc2cc(=O)oc3cc(C)c(O)cc23)CC1 | 6% | -3%
CCOc1ccc(N2CC(NC(=O)CC(C)(C)C)CC2=O)cc1 (stereo not given) | 14% | 15%
CC(Sc1nnc(N2CCOCC2)n1-c1ccccc1)C(=O)c1ccc(Br)cc1 (stereo not given) | 6% | 109%[activator]
CC(NC(=O)c1ccccc1)C1CC2CCC1C2 (stereo not given) | 0% | 11%
CN(C)CCCNCCCN | -7% | -4%
COc1cc(Nc2nc3ccccc3nc2NS(=O)(=O)c2ccc(C)cc2)cc(OC)c1 | 28% | 23%
COc1ccccc1C(=O)Oc1ccc(F)cc1C(=O)/C=C/c1ccccc1Cl | 39%[activator] | 80%[activator]
Cc1c(C#N)c(NC(=O)CN(CC(N)=O)C(C)C)n(Cc2ccco2)c1C | 0% | 1%
Cc1ccc(-c2[nH]ncc2CNCc2ccccc2)cc1 | -1% | -10%
Cc1cc(C)cc(OCc2cc(=O)n3nc(C)sc3n2)c1 | 13% | -3%
CCCOc1ccc(NC(=O)CC2C(=O)N(c3ccc(C)cc3)C(=O)N2C2CCCC2)cc1 (stereo not given) | 69%[activator] | 16%
CCCOc1ccccc1Oc1ncccc1CNC(=O)Nc1ccc2c(c1)OCCCO2 | 16% | 5%
CCC(=O)Nc1ccc(S(=O)(=O)NCCn2nc(-c3ccccc3)ccc2=O)cc1 | -5% | 17%
CCc1ccc2c(CN3CCc4ccccc43)cc(=O)oc2c1 | 114%[activator] | 25%
COc1cccc(C2SCC(=O)Nc3c2c(C)nn3C)c1OC (stereo not given) | 0% | -13%

# Record cards (already shown):
# `Cc1cc(C(C)(C)C)cc(C)c1S(=O)(=O)N1CCN(Cn2ncc3ccccc3c2=O)CC1` reads StopGo FLuc: 5%; 2A Renilla: -10%
# `C/C(=N/NC(=O)c1ccc(C)cc1)C(C)(C)C` reads StopGo FLuc: 200%[activator]; 2A Renilla: 5%
# `CCOC(=O)C1CCN(Cc2cc(=O)oc3cc(C)c(O)cc23)CC1` reads StopGo FLuc: 6%; 2A Renilla: -3%

# Next structures follow.
mol | StopGo FLuc | 2A Renilla
NC(=O)COc1ccc(/C(Cc2ccccc2)=N/O)c(O)c1 | 16% | 2%
C=C(C)CSc1nnc(C(N)Cc2c[nH]c3ccccc23)o1 (stereo not given) | 20% | 4%
CCn1nc(C(=O)N(Cc2nc3ccccc3c(=O)[nH]2)C(C)C)c2ccccc2c1=O | 31%[activator] | 33%[activator]
CC1(C)CC(=O)c2cc(C#N)c(=O)n(-c3cccc(F)c3)c2C1 | 192%[activator] | 0%
Cc1cc(C)n(-c2nc3c(c(=O)n(C)c(=O)n3C)n2Cc2c(F)cccc2Cl)n1 | -4% | -5%
COc1ccc(S(=O)(=O)N(CC(=O)NCCc2ccccc2)c2ccc(Cl)cc2)cc1 | 0% | -8%
COc1ccc(-c2c(C)oc3c(C)c(OCCN4CCC(C(N)=O)CC4)ccc3c2=O)cc1 | 48%[activator] | -5%
CC(C)c1ccc(OCc2cc(=O)n3c(-c4ccccc4)csc3n2)cc1 | -8% | 7%
COc1ccc(CCNC(=O)c2ccc3c(c2)N=C(C)c2ccccc2S3)cc1OC | -19% | 10%
CCOc1ccc(CCNC(=O)c2cccc(-n3c(C)nc4cccnc43)c2)cc1 | -22% | -14%
O=C(OCC(=O)N1CCCC1=O)c1csc(NCc2ccccc2)n1 | 1% | -8%
Clc1ccc(-c2noc3ncnc(N4CCCCC4)c23)cc1 | 20% | 11%
CCOc1ccc(NC(=O)NCCc2c(C)nn(C)c2C)cc1 | 11% | 9%
Cc1ccccc1OCCC(=O)OC(C)C(=O)Nc1ccc(S(N)(=O)=O)cc1 (stereo not given) | -4% | -13%
COc1cccc(NC(=O)COc2ccc3c(C)cc(=O)oc3c2)c1 | 36%[activator] | -2%
CCc1c(C(=O)/C=C/c2cccc(C#N)c2)oc2ccccc12 | -34% | ?
CCc1ccc(NC(=O)C2CCCN2S(=O)(=O)c2ccc3c(c2)CCCC(=O)N3)cc1 (stereo not given) | ? | ?
Cc1cc(=O)oc2cc(OCC(=O)c3cccc4ccccc34)ccc12 | 74%[activator] | 65%[activator]
CCc1cccc(CC)c1NC(=O)C1CCC(CNS(=O)(=O)c2cccc3nsnc23)CC1 (stereo not given) | 15% | -10%
COc1ccc(/C=C/c2ccccc2)cc1 | 110%[activator] | 3%
CC(=O)Nc1cccc(Oc2ccc3nnc(-c4ccc(Cl)cc4)n3n2)c1 | 2% | -1%
COc1ccc(OC)c(CCNC(=O)c2ccc3c(c2)N(Cc2ccc(C)cc2)CCS3)c1 | -3% | 33%[activator]
O=C(NCCc1ccccn1)c1cc(F)cc(F)c1 | 0% | 2%
COc1ccc2c(c1OC)C(=O)OC2CC(=O)c1ccccc1 (stereo not given) | 2% | -3%
O=C(/C(=C\c1ccc(Cl)cc1Cl)c1nc2ccccc2o1)c1ccccc1 | 0% | -4%

# Next part
mol | StopGo FLuc | 2A Renilla
CC(c1nnc(-c2cccs2)o1)N(C)Cc1ccccc1F (stereo not given) | 26% | 13%
CCC1(O)CC(C)N(C)CC1C (stereo not given) | 6% | 7%
N#CC1CCN(C(=O)c2cc(=O)[nH]c3ccccc23)CC1 | 0% | -15%
COc1ccc(C2c3c(oc4ccc(C)cc4c3=O)C(=O)N2CCCN2CCOCC2)cc1OC (stereo not given) | 7% | -11%
O=[N+]([O-])c1ccc(C(=C(c2ccccc2)c2ccccc2)c2ccc([N+](=O)[O-])cc2)cc1 | 2.5µM* | 3.2µM*
CC(NC(=O)COc1ncnc2ccc(Br)cc12)c1ccccc1 (stereo not given) | 13% | 2%
COc1ccc(S(=O)(=O)N2CCN(C(=O)c3cc(-c4ccc(Br)cc4)n[nH]3)CC2)cc1OC | ? | ?
COc1ccc(C(=O)Nc2c(C)cccc2C(C)C)cc1F | 6% | 0%
Cc1cccc(-n2ncc(C(=O)N3CCC(C)CC3)c2C2CCN(C(=O)OC(C)(C)C)CC2)c1 | -20% | -14%
Cc1ccccc1C(=O)c1cc2ccccc2o1 | 118%[activator] | 14%
COc1ccc(-c2noc(-c3cccc(Br)c3)n2)cc1 | 0% | -7%
CCN(c1ccc(OC)cc1)S(=O)(=O)c1ccc2[nH]c(=O)ccc2c1 | -5% | -5%
Cn1c(=O)n(-c2ccc(F)c(Cl)c2)c(=O)c2sc3ccccc3c21 | -9% | -10%
CCn1nc(C(=O)Nc2cc(OC)c(OC)c(OC)c2)c2ccccc2c1=O | 0% | 71%[activator]
Cc1ccc(NC(=O)c2sc3nc4n(c(=O)c3c2C)CCCCC4)c(Br)c1 | -2% | -7%
COC(=O)COC(=O)c1sc(=S)n(C)c1C | 0% | 4%[1.06 µM]
COc1cc(NC(=O)c2ccc(NC(=O)N3CCSc4ncccc43)cc2)cc(OC)c1 | 93%[activator] | -7%
COc1ccc(S(=O)(=O)n2nc(C)c(S(=O)(=O)N3CCCCCC3)c2C)cc1 | -9% | -4%
Cc1cccc(NC(=O)CSc2nc3c(oc4ccccc43)c(=O)n2C(C)C)c1 | -24% | 7%
CCOc1cc(-c2nnc(SCC(=O)NCc3ccccc3)nc2-c2ccc(OC)c(OCC)c2)ccc1OC | 20% | 49%[activator]
CCc1cccc(Nc2ncnc3onc(-c4ccc(F)cc4)c23)c1 | 5% | 13%
CCc1ccc(OCC(=O)Nc2nonc2C)cc1 | 27% | -1%
CC(=O)N1CCC(C(=O)Nc2c(F)cc(F)cc2Br)CC1 | -2% | -13%
O=C(NCC(c1ccc2c(c1)OCO2)N1CCN(c2ccccc2)CC1)C(=O)Nc1ccccc1F (stereo not given) | 33%[activator] | 0%
Cc1ccc(-c2noc(COc3ccccc3C(=O)N3CCN(C(C)C)CC3)n2)cc1 | 35%[activator] | -15%

# More compounds follow:
mol | StopGo FLuc | 2A Renilla
CCC(C)NC(=O)Cn1c(=O)n(-c2ccc(C)c(C)c2)c(=O)c2c(C)c(C(=O)N(CC)CC)sc21 (stereo not given) | -14% | -14%
CN1C[C@H](CNC(=O)OCc2ccccc2)C[C@@H]2c3cccc4c3c(cn4C)C[C@H]21 | -24% | -4%
C(=N\Nc1nc(Nc2ccccc2)nc(N2CCCCC2)n1)/c1ccncc1 | 41%[activator] | 6%
NC(=O)c1cccc(NC(=O)c2cccc3cccnc23)c1 | 96%[activator] | -3%
Cc1oc(-c2ccc(Cl)cc2)nc1CS(=O)CC(=O)NCCCN1CCOCC1 (stereo not given) | 1% | -10%
Cc1cnc2c(S(=O)(=O)N3CCN(C(C)CC#N)CC3)cccc2c1 (stereo not given) | 8% | 3%
Cc1cc(C)c(Sc2ccccc2-c2ccccc2)c(C)c1 | 0% | 5%
CCOC(=O)/C(C#N)=C/c1sccc1C | 83%[activator] | -3%
CCc1ccccc1NS(=O)(=O)c1ccc2[nH]cc(C(=O)NC3CCCC3)c(=O)c2c1 | -25% | 60%[activator]
COc1ccc(N2CCN(S(=O)(=O)c3ccc4c(c3)CC(C)N4C(C)=O)CC2)cc1 (stereo not given) | ? | ?

# An excerpt from the list above, as a working copy:
mol | StopGo FLuc | 2A Renilla
CN1C[C@H](CNC(=O)OCc2ccccc2)C[C@@H]2c3cccc4c3c(cn4C)C[C@H]21 | -24% | -4%
C(=N\Nc1nc(Nc2ccccc2)nc(N2CCCCC2)n1)/c1ccncc1 | 41%[activator] | 6%
NC(=O)c1cccc(NC(=O)c2cccc3cccnc23)c1 | 96%[activator] | -3%

# Only part of the results is shown; rates above refer to the full screens.
